Compound activity from PubChem.
KCNQ2 block = KCNQ2 channel blockers in CHO-K1 cells – cell-based, FluxOR thallium flux, B-score, primary screen (AID 2156) | 20 min; stronger effect = lower value; only compounds with negative scores are shown here; some inactives read as strong as hits | actives 1.1% (n = 310,000) | B-score at 10 µM;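 active = fluorescence ratio B-score at most minus 3 library SDs, with starting brightness B-score within 2 library SDs, cut at about -5.5 in these data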
Target sequence (O88943 whole entry, looked up): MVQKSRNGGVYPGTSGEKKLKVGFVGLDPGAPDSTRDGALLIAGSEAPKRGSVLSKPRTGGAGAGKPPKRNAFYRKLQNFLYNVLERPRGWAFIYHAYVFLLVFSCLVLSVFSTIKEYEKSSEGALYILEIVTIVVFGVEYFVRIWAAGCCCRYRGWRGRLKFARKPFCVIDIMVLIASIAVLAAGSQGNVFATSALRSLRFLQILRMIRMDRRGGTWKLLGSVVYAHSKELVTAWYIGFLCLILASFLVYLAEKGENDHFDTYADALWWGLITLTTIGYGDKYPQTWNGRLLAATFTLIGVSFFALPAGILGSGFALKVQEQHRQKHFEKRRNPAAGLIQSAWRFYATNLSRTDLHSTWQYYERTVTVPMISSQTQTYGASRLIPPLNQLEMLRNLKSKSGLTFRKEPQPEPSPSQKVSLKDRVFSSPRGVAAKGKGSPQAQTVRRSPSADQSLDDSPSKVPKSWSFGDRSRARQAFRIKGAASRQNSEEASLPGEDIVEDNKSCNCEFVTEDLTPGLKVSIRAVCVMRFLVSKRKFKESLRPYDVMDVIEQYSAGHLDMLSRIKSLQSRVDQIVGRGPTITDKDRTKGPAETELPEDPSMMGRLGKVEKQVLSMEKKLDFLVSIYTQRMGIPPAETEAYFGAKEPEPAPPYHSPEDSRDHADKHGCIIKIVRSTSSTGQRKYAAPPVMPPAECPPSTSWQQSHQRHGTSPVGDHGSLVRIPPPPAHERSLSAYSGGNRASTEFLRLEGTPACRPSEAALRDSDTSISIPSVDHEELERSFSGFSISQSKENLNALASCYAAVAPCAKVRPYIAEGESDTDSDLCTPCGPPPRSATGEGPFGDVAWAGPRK
KCNQ2 block baseline = further read-out of KCNQ2 block, marked with its call; B-score; measured here: initial fluorescence intensity artifact check;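 brightness before thallium and not channel activity; 0 = typical well and far values either way flag optical interference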
* = called active by the depositor; i = inactive. A portion of the library, so the mix of outcomes need not match the whole.

SMILES	KCNQ2 block	KCNQ2 block baseline
COC(=O)CN1C(=O)[C@H]2[C@@H](c3ccc(C)o3)N3C(=O)CN(CC4CC4)C(=O)[C@@]3(Cc3ccccc3)[C@H]2C1=O	i	-2
COC(=O)CSc1nc2c(c(-c3ccc(O)cc3)c1C#N)CCCC2	i	0.41
CSc1ccc(/C=C(\NC(=O)c2ccco2)C(=O)N2CCCCC2)cc1	i	0.44
Cc1ccc2nc(-c3ccc(N4C(=N)SC5CS(=O)(=O)CC54)cc3)sc2c1 (stereo not drawn)	i	-0.25
Cc1cccc(C)c1NC1=C(Cl)C(=O)OC1OC(=O)c1ccccc1 (stereo not drawn)	i	-0.2
Cc1cc(-c2nnc(SCC(=O)NC3CCCC3)o2)no1	i	1.3
CN(C)CCCN1C(=O)C2CCc3[nH]c4ccccc4c3C2C1=O (stereo not drawn)	i	2
CC(=O)c1ccccc1OC(=O)COc1ccc([N+](=O)[O-])cc1	i	-0.12
CO/N=C(/CS(=O)Cc1ccc(Cl)cc1)c1ccc(Cl)cc1 (stereo not drawn)	i	-0.44
CC(=O)Nc1ccc(NC(=O)COc2ccc(S(=O)(=O)N3CCCC3)cc2C)cc1	i	-1
COc1ccccc1CNC(=S)NCc1ccc(Cl)cc1	i	-0.34
Cc1cc2ncn(C(=O)N3CCOCC3)c2cc1C	i	-0.06
COc1ccc(Br)cc1/C=C/C(=O)NC(=S)Nc1ccc(Cl)c(C(=O)O)c1	i	0.48
C/C(=N\Nc1cc(-c2ccccc2)nc(-c2ccc(Br)cc2)n1)c1cccc(N)c1	i	-0.02
CC(=O)Nc1ccc(OCc2nnc(-c3ccc(Cl)cc3)o2)cc1	i	0.18
Cn1nnc2cc(C(=O)N3CCCCCC3)ccc21	i	-0.59
CCc1nnc(NC(=O)C2CSC3(C)CCC(=O)N23)s1 (stereo not drawn)	i	0.02
COc1ccc(N2CCN(C(=O)c3ccc4c(=O)n5c(nc4c3)CCCCC5)CC2)cc1	i	0.41
O=C(NCC1CCN(c2ccc(S(=O)(=O)N3CCOCC3)cc2)CC1)c1ccc(Cl)cc1	i	1
CN(CC(=O)Nc1ccc(F)c(F)c1F)C(=O)C1CCN(C(=O)Nc2ccccc2)CC1	i	0.03
CSc1nc2ccc(S(=O)(=O)N3CCc4ccccc43)cc2s1	i	0.9
O=C(O)c1cccc(-n2nc(-c3ccc(Cl)c([N+](=O)[O-])c3)c3ccccc3c2=O)c1	i	0.12
O=C(c1ccccc1)N1CCC(c2nc(-c3ccc(S(=O)(=O)N4CCOCC4)cc3)no2)CC1	i	1.5
CC(C)(CNC(=O)CCC1CCCC1)CNC(=O)CCC1CCCC1	i	1.2
Cc1ccc(S(=O)(=O)C2CCCCC2=O)cc1 (stereo not drawn)	i	1.5
NC(=O)c1ccc(C(=O)N/N=C/c2cccc(Oc3ccccc3)c2)cc1	i	0.07
Cc1ccc(N2CN(CCC3=CCCCC3)CNC2=S)cc1	i	1.8
C=CCOC(=O)C1=C(C)OC(N)=C(C#N)C1c1ccccc1F (stereo not drawn)	i	0.9
O=C1C2C3CC(C(Br)C3Br)C2C(=O)N1CC1CCCO1 (stereo not drawn)	i	1.3
O=C(Cn1nnc(-c2ccccc2Cl)n1)N1CCCCC1	i	3.3
C#Cc1ccc([C@H]2C=C(C(=O)NCc3ccccc3)O[C@@H](OCc3ccc(CO)cc3)C2)cc1	i	0.81
O=C(Nc1ccc2c(c1)OCO2)c1nn(-c2ccccc2)c(=O)c2ccccc12	i	-0.31
O=C1N(CN2CCN(Cc3ccccc3)CC2)c2ccccc2C12OCCCO2	i	-0.78
COCC(C)n1c(C)cc(C(=O)COC(=O)c2n[nH]c3ccccc23)c1C (stereo not drawn)	i	0.35
O=C(CN1C(=O)NC2(CCCc3ccccc32)C1=O)NCC(F)(F)F (stereo not drawn)	i	0.21
O=C(c1cnn2c(C(F)F)cc(-c3ccccc3)nc12)N1CCSCC1	i	-2

Structures from the list above containing a cyano group, in the order listed:
SMILES	KCNQ2 block	KCNQ2 block baseline
COC(=O)CSc1nc2c(c(-c3ccc(O)cc3)c1C#N)CCCC2	i	0.41
C=CCOC(=O)C1=C(C)OC(N)=C(C#N)C1c1ccccc1F (stereo not drawn)	i	0.9

Remaining list, next part.
SMILES	KCNQ2 block	KCNQ2 block baseline
CC(C)(C)[C@H]1C=C(C(=O)N2CCN(Cc3ccc4c(c3)OCO4)CC2)O[C@@H](OCc2ccc(CO)cc2)C1	i	0.39
O=C(COC(=O)/C=C/C(=O)N1CCN(c2ccccc2)CC1)NC(c1ccccc1)c1ccccc1	i	0.68
COc1ccccc1C(=O)c1nc2ccccc2n1C	i	1.2
O=C(Nc1ccc(Nc2ccccc2)cc1)Nc1ccccc1Cl	i	-1.4
COC(=O)c1ccc(COC(=O)CCS(=O)(=O)c2ccc(C)cc2)cc1	i	0.29
Cc1ccccc1Nc1nnc(SCC2CCCCO2)s1 (stereo not drawn)	i	-0.15
Cc1ccc(C(=O)N/N=C/c2ccc([N+](=O)[O-])s2)cc1	i	-0.09
Nc1ccc(SC(F)(F)F)cc1	i	-1.1
C=CCc1ccccc1OCC(O)CNC1CCCC1 (stereo not drawn)	i	0.56
CC(=O)OCC1OC(OC(C)=O)C(NC(=O)Cc2ccccc2)C(OC(C)=O)C1OC(C)=O (stereo not drawn)	i	0.49
Cc1ccc(-n2c(C)cc(/C=C(\C#N)C(=O)NCC3CCCO3)c2C)cc1 (stereo not drawn)	i	-1.7
COc1cc(OC)cc(C(=O)OCC(=O)Nc2sccc2C(N)=O)c1	i	-0.87
COc1ccccc1OCC(=O)NNc1c2ccccc2nc2ccccc12	i	0.11
COc1ccc(C)cc1NC(=O)CNC(=O)c1sc2ccccc2c1Cl	i	0.02
CCC(C)NC(=O)c1cnn2c1NC(c1cccs1)CC2C(F)(F)F (stereo not drawn)	i	1.3
Clc1cc2nc3ccccn3c2cc1Cl	i	1
COc1ccc(N2C(=O)C3C(C2=O)C(C(=O)c2ccccc2)N2CCCC32)cc1 (stereo not drawn)	i	-0.05
CN(C)S(=O)(=O)c1cccc(NC(=O)Cc2ccc(Cl)cc2)c1	i	-0.05
COc1ccc(C(=O)NC2CCCc3ccccc32)cc1[N+](=O)[O-] (stereo not drawn)	i	0.8
CN1CCC(N(C)CC(=O)Nc2ccc3c(c2)OC(F)(F)O3)CC1	i	0.52
CSc1c(CN2CCN(C)CC2)c2ccccc2n1C	i	0.96
CC(=O)Oc1cccc(/C=C2\C=C(c3ccc(C)cc3)OC2=O)c1	i	0.94
CC1(C)CC(=O)c2c(O)cc(OCC(=O)Nc3ccc(S(N)(=O)=O)cc3)cc2O1	i	0.03
Cc1ccc2c(c1)sc1nc(=O)n(-c3ccccc3)c(=O)n12	i	-0.42
O=C(CCCCn1c(=O)c2ccccc2n(CC(=O)NC2CCCC2)c1=O)NC1CCCC1	i	0.04
COc1ccc(CC(=O)NCc2nnc(SCC(=O)Nc3nccs3)n2C)cc1	i	-0.7
CN1CCN(C(=S)Nc2ccc(S(N)(=O)=O)cc2)CC1	i	-2.3
CC(C)CN1C(=S)SC(C)(C)C1n1oc(=O)n(-c2ccc(Cl)cc2)c1=O (stereo not drawn)	i	-1.6
Cc1ccc2c(c1)Cc1nc3ccccc3nc1-2	i	0.88
CCS(=O)(=O)NCCc1csc(-c2ccccc2)n1	i	1.1
CCC1Oc2ccc(C)cc2N(CC(=O)N(Cc2ccc(C)o2)C2CCCC2)C1=O (stereo not drawn)	i	-1.1
Cc1cccc2c(C(=O)N3CCN(C(=O)c4ccco4)CC3)cc(-c3cccc(Br)c3)nc12	i	-0.15
Cc1ccc(S(=O)(=O)/N=C(\CN2CCOCC2)N2CCCC2)cc1	i	-0.13
CCc1nc2ccc(C)cc2c(C(=O)Oc2cccc3cccnc23)c1C	i	-0.53
CCN(C(=O)c1cc2cc(OC)ccc2oc1=O)c1cccc(C)c1	i	-1.4
CCOC(=O)c1c(-c2ccccc2)oc2ccc(OCC(=O)NNC(=O)CCCC(=O)O)cc12	i	1.2
O=[N+]([O-])c1ccc(-c2ccc(C=Nc3cccc4ccccc34)o2)cc1	i	-1.4
Cc1ccc(S(=O)(=O)NC(C)C(=O)Nc2cccc([N+](=O)[O-])c2)cc1 (stereo not drawn)	i	2.9
CN1C(=O)CC(N2CCN(c3ccccc3)CC2)C1=O (stereo not drawn)	i	0.63
CC1(C)CC(=O)c2c(O)cc(OCc3ccc(Br)cc3)cc2O1	i	-0.81
CN(CCOc1ccc(-c2ccn(S(=O)(=O)c3ccc(Cl)cc3)n2)cc1)c1ccccn1	i	0.8
CN(CC(=O)Nc1cccc(F)c1)C(=O)c1cccnc1Sc1ccccc1Cl	i	-1.5
CCn1ncc(Br)c1C(=O)Nc1ccccc1C(F)(F)F	i	-9.5
COc1cc(Cl)ccc1OCc1cc(C(=O)N2CCN(c3ccccn3)CC2)no1	i	-0.68
CCOCC(=O)Nc1nnc(C2CCCCC2)s1	i	-0.06
Cc1ccc(C(=O)N2CCN(c3ccccn3)CC2)cc1	i	1.1
COc1cc2c(cc1OC)CN(CCC(=O)c1ccc(Br)cc1)CC2	-9.6*	0.67*
O=C(Oc1ccc2c(c1)OCO2)C12CC3CC(CC(C3)C1)C2	i	-0.41

Reprinted from the part before: three entries; new compounds follow.
SMILES	KCNQ2 block	KCNQ2 block baseline
Cc1ccc(C(=O)N2CCN(c3ccccn3)CC2)cc1	i	1.1
COc1cc2c(cc1OC)CN(CCC(=O)c1ccc(Br)cc1)CC2	-9.6*	0.67*
O=C(Oc1ccc2c(c1)OCO2)C12CC3CC(CC(C3)C1)C2	i	-0.41
COc1ccc(-c2nc3n(c(=O)c2C#N)CCS3)c(OC)c1	i	-0.16
COc1ccccc1NC(=O)CSCC(=O)N1c2ccccc2CCc2ccccc21	i	-1.6
CC(=O)n1cc([C@H]2C=C(C(=O)NCc3ccccc3)O[C@@H](OCc3ccc(CO)cc3)C2)c2ccccc21	i	-2.4
Cc1cc(C(=O)COC(=O)CC2Sc3ccccc3NC2=O)c(C)n1-c1ccc(Br)cc1 (stereo not drawn)	i	0.29
O=C(COC(=O)Cc1ccccc1[N+](=O)[O-])NCc1ccccc1Cl	i	0.5
COC(=O)/C=C/C(=O)NCc1ccco1	i	-1.2
CCCC(C(=O)NCCC(C)C)N(Cc1ccc(OC)cc1)C(=O)c1snc(C(N)=O)c1N (stereo not drawn)	i	0.12
CCOC(=O)Cc1nnc2c(Nc3ccccc3F)nc3nonc3n12	i	0.21
Cc1ccc(N2CCN(C(=S)Nc3ccccc3C)CC2)cc1	i	0.52
COc1ccc(NS(=O)(=O)c2cccc(C(=O)N/N=C(\C)c3ccncc3)c2)cc1	i	0.38
C/C(=N\Nc1ccc(Cl)c(C(=O)O)c1)c1cc2ccccc2o1	i	-0.31
CN1CCN(S(=O)(=O)c2cccc(C(=O)Nc3cc(C(F)(F)F)ccc3N3CCCCC3)c2)CC1	-7.3*	0.42*
COc1ccc(Oc2c(C)oc3cc(OC(=O)N4CCOCC4)ccc3c2=O)cc1	i	1.4
Cc1ccc(/C=N\NC(=O)/C(=C\Nc2nccc(C)n2)NC(=O)c2ccccc2)cc1	i	0.78
CCCNC(=O)c1ccc(N2CCC3(CC2)CC(c2cccc(Br)c2)=NO3)c(NC(=O)c2ccc(Cl)c([N+](=O)[O-])c2)c1	i	-0.79
O=C(NCC1(c2ccccc2)CCCC1)c1ccc(Br)cc1	i	2.4
COc1cc(CN2CCC(Cc3ccccc3)CC2)cc(OC)c1OC	i	-0.99
CCOC(=O)C1=C(O)/C(=C/c2ccc(CNC(=O)C(=O)Nc3ccc(C)cc3)o2)N=C1C	i	0.21
COc1ccc(-n2cc(CNCc3cccnc3)c(-c3cccc(F)c3)n2)cc1	i	-0.01
Cc1cccn2c(=O)c3cc(C(=O)N4COCC4(C)C)n(Cc4ccccc4)c3nc12	i	-0.16
CC1(C)Cc2nc3oc4c(NCCCN5CCOCC5)ncnc4c3cc2CO1	i	2.6
C/C(=N\OCC(=O)Nc1ccccc1C(C)(C)C)c1ccc2c(c1)OCCO2	i	1.6
O=[N+]([O-])c1cc2c(cc1/C=N/n1c(-c3ccccn3)n[nH]c1=S)OCO2	i	0.54
CCOc1ccc(-c2nc(CSCC(=O)N3CCN(C(=O)c4ccco4)CC3)c(C)o2)cc1	i	-0.49

Complete entries, quoted from the list:
CCOc1ccc(-c2nc(CSCC(=O)N3CCN(C(=O)c4ccco4)CC3)c(C)o2)cc1 reads KCNQ2 block = i; KCNQ2 block baseline = -0.49
C/C(=N\OCC(=O)Nc1ccccc1C(C)(C)C)c1ccc2c(c1)OCCO2 reads KCNQ2 block = i; KCNQ2 block baseline = 1.6
CCCNC(=O)c1ccc(N2CCC3(CC2)CC(c2cccc(Br)c2)=NO3)c(NC(=O)c2ccc(Cl)c([N+](=O)[O-])c2)c1 reads KCNQ2 block = i; KCNQ2 block baseline = -0.79

The list continues:
SMILES	KCNQ2 block	KCNQ2 block baseline
COc1ccc(CCN2CC(C(=O)NCc3ccco3)CC2=O)cc1OC (stereo not drawn)	i	-0.91
Cc1cccc(Nc2nc(N)c([N+](=O)[O-])c(N3CCCC(C)C3)n2)c1 (stereo not drawn)	i	0.97
Cc1cc(NC(=O)c2cccc(COc3ccc(Br)cc3)c2)no1	i	-0.03
Cc1ccc(S(=O)(=O)N=S(CCO)CCO)cc1	i	0.05
CCCCN(C(=O)Nc1ccc(OCC)cc1)C1CCN(C(C)=O)CC1	i	-0.86
COc1ccc(NC(=O)COc2ccccc2Cc2ccccc2)cc1S(N)(=O)=O	i	-0.02
CCN1CCN(CC(O)COCCOc2ccc(Br)cc2)CC1 (stereo not drawn)	i	-2.3

Some of the entries so far, as labelled records:
COc1ccc(CCN2CC(C(=O)NCc3ccco3)CC2=O)cc1OC (stereo not drawn)
  KCNQ2 block = i	KCNQ2 block baseline = -0.91
Cc1cccc(Nc2nc(N)c([N+](=O)[O-])c(N3CCCC(C)C3)n2)c1 (stereo not drawn)
  KCNQ2 block = i	KCNQ2 block baseline = 0.97
Cc1cc(NC(=O)c2cccc(COc3ccc(Br)cc3)c2)no1
  KCNQ2 block = i	KCNQ2 block baseline = -0.03
